KCNQ2 block – KCNQ2 channel blockers in CHO-K1 cells – cell-based, FluxOR thallium flux, B-score, primary screen (AID 2156). 20 min; stronger effect = lower value; only compounds with negative scores are shown here; some inactives read as strong as hits. B-score at 10 µM. hit rate 1.1% among 310,000;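 active = fluorescence ratio B-score at most minus 3 library SDs, with starting brightness B-score within 2 library SDs, cut at about -5.5 in these data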
Target sequence (O88943 whole entry, looked up): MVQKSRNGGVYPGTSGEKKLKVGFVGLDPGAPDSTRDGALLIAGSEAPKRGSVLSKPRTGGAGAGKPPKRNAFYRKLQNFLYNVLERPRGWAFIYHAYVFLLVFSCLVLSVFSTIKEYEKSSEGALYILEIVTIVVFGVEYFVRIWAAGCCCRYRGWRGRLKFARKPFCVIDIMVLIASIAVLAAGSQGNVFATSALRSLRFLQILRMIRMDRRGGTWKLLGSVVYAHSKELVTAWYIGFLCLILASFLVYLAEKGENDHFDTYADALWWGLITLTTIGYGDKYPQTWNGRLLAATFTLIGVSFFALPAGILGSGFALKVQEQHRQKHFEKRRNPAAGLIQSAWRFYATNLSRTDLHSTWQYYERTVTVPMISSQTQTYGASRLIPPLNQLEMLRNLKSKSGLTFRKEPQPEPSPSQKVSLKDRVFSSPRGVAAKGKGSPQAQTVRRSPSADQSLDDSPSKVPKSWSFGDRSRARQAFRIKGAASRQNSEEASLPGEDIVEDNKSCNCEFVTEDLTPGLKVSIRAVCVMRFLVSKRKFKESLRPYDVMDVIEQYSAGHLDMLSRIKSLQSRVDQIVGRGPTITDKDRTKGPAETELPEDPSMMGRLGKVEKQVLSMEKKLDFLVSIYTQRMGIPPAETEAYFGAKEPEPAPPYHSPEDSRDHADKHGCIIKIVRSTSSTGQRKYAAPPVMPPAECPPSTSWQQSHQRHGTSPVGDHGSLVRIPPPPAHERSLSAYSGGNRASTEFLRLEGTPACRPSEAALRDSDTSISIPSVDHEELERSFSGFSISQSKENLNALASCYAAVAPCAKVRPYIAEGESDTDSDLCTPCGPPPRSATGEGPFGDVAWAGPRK
KCNQ2 block baseline – recorded beside KCNQ2 block, whose call it bears; B-score; measured here: initial fluorescence intensity artifact check;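 brightness before thallium and not channel activity; 0 = typical well and far values either way flag optical interference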
* marks the source's active call; other numbers are inactive results; i = inactive.

SMILES	KCNQ2 block	KCNQ2 block baseline
COC(=O)C1=C(c2cc3ccccc3s2)C[C@@H]2CC[C@H]1N2C(=O)NCc1ccco1	i	-0.02
COC(=O)C1=C(c2cc3ccccc3s2)C[C@@H]2CC[C@H]1N2C(=O)NC1CC1	i	0.05
C[C@H]1CC[C@@H]2[C@@H](C)[C@H]3[C@H](C[C@H]4[C@@H]5CC=C6C[C@@H](O[C@@H]7O[C@H](CO)[C@H](O)[C@H](O[C@@H]8O[C@H](CO)[C@@H](O)[C@H](O)[C@H]8O)[C@H]7O[C@@H]7O[C@@H](C)[C@H](O)[C@@H](O)[C@H]7O)CC[C@]6(C)[C@H]5CC[C@]34C)N2C1	i	0.28
Nc1ccc(C2(c3ccc(N)cc3)CCCCC2)cc1	i	0.16
COc1ccc(OC)c(NP(=O)(Oc2ccc(Cl)cc2)Oc2ccc(Cl)cc2)c1	-6.14*	-0.89*
CCOc1ccc(C2(C#N)CC[N+](C)(C)CC2)cc1	i	0.84
Cc1ccc(O)c(CN2CCN(c3ccccc3)CC2)c1	i	0.31
CCN1CCN(Cc2cccnc2)CC1	i	-0.95
O=c1cc(CN2CCNCC2)nc2sccn12	i	-1.56
Cc1ccccc1N1C(=O)NC(=O)/C(=C\c2cc(C)n(C)c2C)C1=O	i	2.46

SMILES	KCNQ2 block	KCNQ2 block baseline
CCN(CC)CCN=Cc1c(O)n(Cc2ccco2)c(=O)[nH]c1=O	i	-0.11
Oc1ccccc1/C=N/NP(=S)(c1ccccc1)c1ccccc1	i	0.64
CC(C)(C)c1cc(OC(=O)Cc2ccccc2)ccc1O	i	-0.04
O=C1/C(=C/c2ccc([N+](=O)[O-])cc2)N2CCC1CC2	i	1.39
C=CCn1c(O)c(C(CC)=NCc2ccc3c(c2)OCO3)c(=O)[nH]c1=O	i	-0.65
CCOC(=O)C(O)(c1ccc(NC(=S)NC(=O)c2ccc(Cl)cc2Cl)cc1)C(F)(F)F (stereo not drawn)	i	-1.19
CCOc1ccccc1N1C(=O)CC(=O)NC1=O	i	2.83
CC/C(=N\Nc1cccc2ccccc12)c1c(O)[nH]c(=O)[nH]c1=O	i	0.66
CC(C)(C)c1ccc(C(=O)C2CCCN(Cc3ccon3)C2)cc1 (stereo not drawn)	i	-0.04
CCCC12CN3CCN(CC(C3)/C1=N\NC(=O)c1ccncc1)C2	i	-0.08

SMILES	KCNQ2 block	KCNQ2 block baseline
CCN(CC)P(=O)(NC(=O)c1cccn1C)N(CC)CC	i	0.08
CN(C)[C@@H]1C(=O)C(C(N)=O)=C(O)[C@@]2(O)C(=O)C3=C(O)c4c(O)cccc4[C@@](C)(O)C3C[C@@H]12 (stereo partly drawn)	i	-1.22
COc1ccc(CC2C(=O)NC(=O)NC2=O)c(OC)c1	i	0.04
O=c1[nH]c(=S)n(Cc2ccc(F)cc2)c(O)c1/C=N/N1CCCCCC1	i	0.55
O=C1NC(=O)C(=Cc2ccc(SC3CCCCC3)o2)C(=O)N1	i	-0.42
O=C(c1ccc2c(c1)ncn2C1CCCCCC1)N1CCC2(CC1)OCCO2	i	0.25
Cc1cc(OC(C)C(=O)NCC(O)c2ccccc2)c2c3c(c(=O)oc2c1)CCCC3 (stereo not drawn)	i	0.06
COC(=O)C1=C(c2cc3ccccc3s2)C[C@@H]2CC[C@H]1N2C(=O)NCc1ccccc1	i	-0.27
c1ccc(CCN2CCC3(CC2)OCCO3)cc1	i	1.82
CC(C)Oc1cccc(C(=O)C2CCCN(Cc3ccon3)C2)c1 (stereo not drawn)	i	0.36

SMILES	KCNQ2 block	KCNQ2 block baseline
CCCCn1c(O)c(C=NC2CCCCC2N)c(=O)[nH]c1=O (stereo not drawn)	i	0.44
Cc1ccc2c(c1)C1CN(C)CCC1N2C(=O)c1ccco1 (stereo not drawn)	i	2.3
Cc1ccc(C(=O)n2cc(CCN3CCS(=O)(=O)CC3)c3ccccc32)cc1	i	0.01
CNC(=O)OCc1n(C)cc[n+]1C	i	-0.63
Cc1nc2ccccc2c(=O)n1-c1ccc(Cl)c(Cl)c1	i	1.6
CN1CCN(c2ccc([N+](=O)[O-])c(SCCO)c2)CC1	i	0.13
CN1C(=O)N(C)C(=O)C2(Cc3cc(NC(=O)c4ccccc4Cl)ccc3N3CCCC32)C1=O (stereo not drawn)	i	-0.16
O=C(Nc1ccccc1)c1cccn(Cc2ccccc2)c1=O	i	-1.11
CCCC[N+]1(C)C2CC(OC(=O)C(CO)c3ccccc3)CC1C1OC12 (stereo not drawn)	i	0.35
COc1ccc(CN2CCCC(C(=O)c3ccccc3SC)C2)cc1O (stereo not drawn)	i	-1.9

SMILES	KCNQ2 block	KCNQ2 block baseline
Cc1ccc2c(c1)C1CN(C)CCC1N2C(=O)c1cccnc1Cl (stereo not drawn)	i	4.25
CC1CC2(O)c3nonc3CCC2N1O (stereo not drawn)	i	-2.73
CC(C)N1C(=O)CC2(CC[N+](C)(CCOC(=O)C(O)(c3ccccc3)c3ccccc3)CC2)C1=O (stereo not drawn)	i	-0.51
C#CCN(C)C(C)Cc1ccccc1 (stereo not drawn)	i	0.89
CC1CN=C(NCc2ccccc2)S1 (stereo not drawn)	i	0.54
NCCc1c[nH]c2ccc(O)cc12	i	-1.36
C=CCn1c(O)c(/C=C/C=Nc2ccccc2)c(=O)[nH]c1=O	i	0.04
c1coc(CNCCc2c[nH]c3ccccc23)c1	i	-0.11
COC(=O)C1=C(c2cc3ccccc3o2)C[C@@H]2CC[C@H]1N2C(=O)NCc1cccc2ccccc12	i	-1.81
CCCCCCn1c(N)c(C(=O)NCCN2CCOCC2)c2nc3ccccc3nc21	i	-0.44

SMILES	KCNQ2 block	KCNQ2 block baseline
c1ccc(CCCN2CCN(CCOC(c3ccccc3)c3ccccc3)CC2)cc1	i	-0.29
CCN(C(=O)CN1CC=C(c2ccccc2)CC1)c1c(N)n(Cc2ccccc2)c(=O)[nH]c1=O	i	0.9
CC1CCCN(CC(=O)c2ccc(Cl)c(Cl)c2)C1 (stereo not drawn)	i	-2.27
CCN(c1ccc(C(O)(C(=O)OC)C(F)(F)F)cc1)S(=O)(=O)c1ccc(C)cc1 (stereo not drawn)	i	0.05
Cc1cc(-c2ccccc2)cc(-c2ccccc2)[n+]1CCc1ccccc1	-5.72*	-1.33*
COc1ccc(SCC2CN(C)CCC2c2ccc(F)cc2)cc1 (stereo not drawn)	i	0.28
CCC1C(c2ccccc2)NC(c2ccccc2)CC1(O)c1ccc(F)cc1 (stereo not drawn)	i	-0.66
CCC(=NCC1CCCO1)c1c(O)n(-c2ccccc2)c(=O)[nH]c1=O (stereo not drawn)	i	-0.7
O=C(Cc1ccc([N+](=O)[O-])cc1)N1CCN(Cc2ccc3c(c2)OCO3)CC1	i	-0.01
CC(=O)OC1(c2ccccc2)CCN(C)C2CCCCC21 (stereo not drawn)	i	0.72

Looked up by structure from the list above, three records:
SMILES	KCNQ2 block	KCNQ2 block baseline
c1ccc(CCCN2CCN(CCOC(c3ccccc3)c3ccccc3)CC2)cc1	i	-0.29
CCC1C(c2ccccc2)NC(c2ccccc2)CC1(O)c1ccc(F)cc1 (stereo not drawn)	i	-0.66
O=C(Cc1ccc([N+](=O)[O-])cc1)N1CCN(Cc2ccc3c(c2)OCO3)CC1	i	-0.01

(cont.)
SMILES	KCNQ2 block	KCNQ2 block baseline
Cc1cccc(-n2c(-c3cccs3)nc3ccccc3c2=O)c1	i	0.41
Cc1cccc(N2CCc3c2nc2ccccc2c3N)c1	i	0.21
O=C(c1ccc(F)cc1)N1CCC2(CC1)OCCO2	i	0.9
CN1C(=O)N(C)C(=O)C2(Cc3ccccc3N3CCCC32)C1=O (stereo not drawn)	i	-1.08
OCCNc1c2c(nc3ccccc13)CCCC2	i	-0.08
CCCCOc1ccc(CN2CCN(CC)CC2)cc1	i	1.08
O=[N+]([O-])c1ccc(CNCCc2ccccc2)cc1	i	1.82
C=CCn1c(O)c(C(C)=NCCc2ccccc2)c(=O)[nH]c1=O	i	-0.15
CCCC[n+]1cc(/N=C(\[O-])OC)on1	i	0.12
CN1CCC(OC(=O)c2cccc(F)c2)CC1	i	0.3

Shown with two lines to a compound: two of the compounds above
Value order: KCNQ2 block, KCNQ2 block baseline
CCC(=NCC1CCCO1)c1c(O)n(-c2ccccc2)c(=O)[nH]c1=O (stereo not drawn)
 : i, -0.7
O=C(Cc1ccc([N+](=O)[O-])cc1)N1CCN(Cc2ccc3c(c2)OCO3)CC1
 : i, -0.01

Carrying on.
SMILES	KCNQ2 block	KCNQ2 block baseline
O=C(O)COc1ccc(Cl)cc1Cl	i	-1.37
COc1cc(Br)cc(CN2CCN(C)CC2)c1O	i	0.13
C=C1[C@@H](C)[C@H]2[C@H](Cc3ccccc3)NC(=O)[C@]23OC(=O)/C=C/[C@H](O)CCC[C@@H](C)C/C=C/[C@H]3[C@@H]1O	i	-0.15
CCC(=NCCN1CCOCC1)c1c(O)n(-c2ccccc2C)c(=O)[nH]c1=O	i	1.96
CCC(=NCC1CCCO1)c1c(O)n(-c2ccc(OC)cc2)c(=O)[nH]c1=O (stereo not drawn)	i	-0.84
C[N+](C)(C)CC#CCN1CCCC1=O	i	0.38
CC(Cc1ccccc1)[n+]1cc(/N=C(\[O-])Nc2ccccc2)on1 (stereo not drawn)	i	-0.6
Cn1c(O)c(C(c2ccccn2)c2c(O)n(C)c(=S)[nH]c2=O)c(=O)[nH]c1=S	i	0.02
Cc1ccc(Cn2nnnc2CN2CCC(n3nnc4ccccc43)CC2)cc1	i	1.8
CCCCCCn1c(=O)c(C(=O)Nc2cnccn2)c(O)c2ccccc21	i	1.25

SMILES	KCNQ2 block	KCNQ2 block baseline
O=C(c1cc(Br)ccc1Cl)N1CCC2(CC1)OCCO2	i	2.43
Cc1ccccc1CN1CCCN(Cc2ccc(Cl)cc2)S1(=O)=O	i	0.58
O=[N+]([O-])NC1=NCN(Cc2ccco2)CN1Cc1ccco1	i	-0.09
O=C1NC(=O)N(Cc2ccc(F)cc2)C(=O)/C1=C\c1ccoc1	i	1.43
CN(C)c1ccc2c(c1)N=C(c1ccco1)OP2(=S)N1CCOCC1 (stereo not drawn)	i	-0.72
CCc1ccc(CN2CCCC(C(=O)c3sccc3C)C2)o1 (stereo not drawn)	i	1.23
COc1ccccc1-n1c(O)c(C=Nc2c(C)n(C)n(-c3ccccc3)c2=O)c(=O)[nH]c1=O	i	0.05
C=Cn1ccnc1P(=S)(c1ccc(Cl)cc1)c1nccn1C=C	i	0.98
COc1ccc(OP(=O)(Nc2ccccc2)Nc2ccccc2)cc1	i	0.25
NP(=O)(Oc1ccccc1Cl)Oc1ccccc1Cl	i	0.12

SMILES	KCNQ2 block	KCNQ2 block baseline
COc1ccc2c3c([nH]c2c1)C(C)=NCC3	i	1.85
Cc1ccc(C(=O)N[C@@H](C)CN2C3=NC[C@@H](Cc4ccccc4)N3C[C@H]2Cc2ccc(O)cc2)cc1Br	i	-1.36
NC(=O)Cn1cc(C(=O)c2ccccc2F)c2ccccc21	i	0.64
Brc1cc2c(cc1CN1CCN(c3ccccc3)CC1)OCCO2	i	0.36
CCCCC(=O)N/N=C/c1c(O)n(Cc2ccc(F)cc2)c(=O)[nH]c1=O	i	-0.27
CN(C)C(Cc1ccc(Cl)cc1)C(=O)c1ccccc1 (stereo not drawn)	i	-0.82
Cc1ccccc1OCCCn1cc(C(=O)C(=O)N2CCOCC2)c2ccccc21	i	-0.4
COc1cc2c(cc1OC)CC[N+](C)=C2	i	-0.44
Cc1cc(C)cc(N2C(=O)NC(=O)/C(=C\c3cc(C)n(C)c3C)C2=O)c1	i	-0.06
COc1ccc(CC[n+]2cc(/N=C(\C)[O-])on2)cc1OC	i	1.3

Sorted by SMILES length (ascending): some entries from above.
SMILES	KCNQ2 block	KCNQ2 block baseline
COc1cc2c(cc1OC)CC[N+](C)=C2	i	-0.44
COc1ccc2c3c([nH]c2c1)C(C)=NCC3	i	1.85
CCCCC(=O)N/N=C/c1c(O)n(Cc2ccc(F)cc2)c(=O)[nH]c1=O	i	-0.27

Continued:
SMILES	KCNQ2 block	KCNQ2 block baseline
CN(C)C(=O)Oc1cccc2c(OC(=O)N(C)C)cccc12	i	-0.04
O=C(NCc1ccccn1)c1ccccc1Cl	i	-0.38
CCCCCCn1c(=O)c(C(=O)Nc2ncccc2C)c(O)c2ccccc21	i	-0.34
CC/C=C/CC(=O)N[C@@H](c1ccccc1)[C@@H](O)C(=O)O[C@H]1C[C@@]2(O)[C@@H](OC(=O)c3ccccc3)C3[C@](C)(C(=O)[C@H](OC(C)=O)C(=C1C)C2(C)C)[C@@H](O)C[C@H]1OC[C@@]31OC(C)=O (stereo partly drawn)	-5.62*	3.18*
O=C(O)c1cccc2nc3ccccc3nc12	i	0.65
CC(C)COc1ccc(C2(C#N)CC[N+](C)(C)CC2)cc1	i	2.34
CNCCc1nc(N)n[nH]1	i	0.09
Cc1ccccc1-n1c(O)c(C=Nc2ccc(N(C)C)cc2)c(=O)[nH]c1=O	i	0.2
Cc1nn(Cc2ccc(Cl)cc2Cl)c(Cl)c1C(=O)Nc1ccc(OC(F)F)cc1	i	-0.51
COc1cc2c(cc1OC)[C@@]13CCN4CC5=CCO[C@H]6CC(=O)N2[C@H]1[C@H]6[C@H]5C[C@H]43	i	-1.25

SMILES	KCNQ2 block	KCNQ2 block baseline
CN1C(=O)c2ccccc2Sc2ccc(C(=O)N3CCC4(CC3)OCCO4)cc21	i	-0.65
Cc1ccc(OP(N)(=O)Oc2ccc(C)cc2)cc1	i	0.77
OC(c1ccccc1)(c1ccccc1)C1CCNCC1	i	-1.27
O=C(c1cc2c(s1)-c1ccccc1OC2)N1CCC2(CC1)OCCO2	i	-0.37
CCCCCc1nc2c(c(=O)c3ccccc3n2C)c(=O)n1C1CCCCCC1	i	-1.1
Cc1cc(OCC(=O)N2CCC(C(N)=O)CC2)c2c3c(c(=O)oc2c1)CCCC3	i	-1.92
O=C1NC(=O)N(c2cccc(F)c2)C(=O)/C1=C/c1ccc(N2CCOCC2)cc1	i	-2.15
O=C1NC(=O)C(=Cc2ccc(Sc3ccccc3)o2)C(=O)N1	i	-0.37
COC(=O)CCCCC1SCC(NC(=O)c2ccccc2)C1Cl (stereo not drawn)	i	3.05

Some of the compounds tested, so the mix of outcomes need not match the whole.
